Bioassay records from PubChem BioAssay.
PINK1 modulator – modulators of PINK1 expression. PINK1 immunofluorescence, high-content cytometry, 24 h. Potency, µM (highest dose often 76.6 µM), inactives show at the top dose activation (PINK1 increase), actives largely listed as activators. actives 0.2% (n = 410,000); active = well fitted activation curve with a large enough effect; inconclusive = small, poorly fitted or top-dose-only effect; inactive = flat fitted curve, though single readings scatter; cell line not stated here;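 further: potency means the concentration at half of the fitted maximal effect; % of control where 0% means no effect; nearly all actives have a fitted effect of over 65% in size; a mitochondrial uncoupler was the plate control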
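Readout is PINK1 immunofluorescence, quantified alongside mitochondrial, cell and nuclear markers by laser-scanning microplate cytometry. Cells from a stable line were exposed to compound titrations (5 concentrations) for 24 hours, with CCCP controls.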
Six1-Eya2 inh – blocks human Six1 binding to Eya2; AlphaScreen GST-Six1/His-Eya2 binding, biochemical; stronger effect = lower value; control for the full effect not named in the record; activity change, % (no concentration beside the values); actives 0.56% (n = 360,000); in the data active = activity change below about -65%; inconclusive = about -30% to -65%; inactive = above about -30%; further: on the % scale 0 is the no-effect control and ±100 the full control effect; compound concentration not given in the record
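Compounds are tested against tagged Six1 and Eya2 proteins bridged by glutathione donor and nickel acceptor beads; after a one-hour incubation at 37 °C without light, AlphaScreen emission is recorded.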
D2 agonist – agonists of human D2 dopamine receptor (beta-arrestin); P14416; actives 0.084% (n = 360,000); activation, % (concentration not given with the values); DiscoveRx PathHunter D2 beta-arrestin, luminescence, 90 min; 100% = 57 uM dopamine signal; in the data active = activation above about 40%; inconclusive = about 15% to 40%; inactive = below about 15%; further: compound concentration not given in the record; the text of the record calls up to 30% inactive
Target sequence (P14416 whole entry, looked up): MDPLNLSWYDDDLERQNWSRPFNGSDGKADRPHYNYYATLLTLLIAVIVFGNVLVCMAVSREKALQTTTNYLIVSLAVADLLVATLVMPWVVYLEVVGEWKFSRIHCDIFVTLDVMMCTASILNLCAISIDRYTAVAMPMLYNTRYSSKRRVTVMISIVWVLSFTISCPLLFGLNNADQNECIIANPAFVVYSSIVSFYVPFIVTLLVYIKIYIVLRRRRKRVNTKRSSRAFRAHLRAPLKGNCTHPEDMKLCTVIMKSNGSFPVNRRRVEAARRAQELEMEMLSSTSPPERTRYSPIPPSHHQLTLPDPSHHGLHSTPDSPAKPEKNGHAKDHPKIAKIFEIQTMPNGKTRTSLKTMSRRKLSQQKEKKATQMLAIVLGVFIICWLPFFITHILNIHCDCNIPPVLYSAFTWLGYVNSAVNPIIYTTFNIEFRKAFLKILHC
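DiscoveRx PathHunter D2 beta-arrestin cells (2,100/well) attached overnight, then compound-stimulated 90 min at 37 C in HBSS/10 mM HEPES/0.1% Tween-20 buffer; beta-galactosidase complementation read by luminescence after 1 h at ambient temperature. Dopamine 57 uM final (EC100) as control.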
TRPML1 ag – activates the human TRPML1 channel. actives 0.12% (n = 410,000). TRPML1-expressing cells, Ca2+ dye fluorescence, FDSS; host cell line not named in the record; reference of the full effect not given here. AID 624414. activation, % (concentration not given with the values). Q9GZU1; in the data active = activation above about 50%; inconclusive = about 30% to 50%; inactive = below about 30%; further: 0% is about no effect; the text of the record puts the active cut at 80%
Target sequence (Q9GZU1 whole entry, looked up): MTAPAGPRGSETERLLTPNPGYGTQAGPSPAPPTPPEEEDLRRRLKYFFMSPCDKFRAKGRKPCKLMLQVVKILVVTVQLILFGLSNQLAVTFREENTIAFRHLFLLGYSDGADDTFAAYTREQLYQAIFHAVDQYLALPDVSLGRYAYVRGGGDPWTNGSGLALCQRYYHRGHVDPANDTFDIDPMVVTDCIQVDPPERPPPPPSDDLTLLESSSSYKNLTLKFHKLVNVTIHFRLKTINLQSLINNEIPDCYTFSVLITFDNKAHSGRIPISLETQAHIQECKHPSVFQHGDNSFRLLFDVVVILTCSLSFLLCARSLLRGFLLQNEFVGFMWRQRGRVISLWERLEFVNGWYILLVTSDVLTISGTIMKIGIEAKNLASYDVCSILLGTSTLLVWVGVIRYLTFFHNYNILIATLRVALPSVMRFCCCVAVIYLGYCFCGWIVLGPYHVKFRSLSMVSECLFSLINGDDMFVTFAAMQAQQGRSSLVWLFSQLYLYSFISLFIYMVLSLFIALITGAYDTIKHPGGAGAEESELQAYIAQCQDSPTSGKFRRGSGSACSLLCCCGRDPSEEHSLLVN
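Tetracycline-induced TRPML1-DL cells are seeded and incubated overnight before loading with a no-wash Ca2+ dye and quencher. Agonist activity is taken from the 110 s fluorescence read following compound pin-transfer on an FDSS, before EC80 54-4 challenge.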
D2 PAM – positive allosteric modulators of human D2 dopamine receptor; P14416; potentiation, % (test concentration not listed); actives 0.23% (n = 360,000); DiscoveRx D2 beta-arrestin cells, luminescence, 90 min; 100% = 57 uM dopamine signal; AID 624464; active = potentiation of 50% or more; inconclusive = 30% to 50%; inactive = 30% or less;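 further: compound concentration not given in the record; tested on top of an EC20 dose of dopamine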
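PathHunter beta-arrestin assay in DiscoveRx D2 cells. Compounds were added with an EC20 of dopamine (50 nM final) for 90 min at 37 deg C. Luminescence was read 1 h after detection reagent, with 57 uM dopamine as the EC100 control.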
TRPML1 inh – human mucolipin-1 channel inhibition. TRPML1-inducible cells, Ca2+ dye fluorescence, FDSS; stronger effect = lower value; inhibition of EC80 agonist-evoked calcium signal. activity change, negative = inhibition, % (concentration not given with the values). actives 0.02% (n = 390,000). AID 624415; in the data active means activity change below about -50%; inconclusive means about -30% to -50%; inactive means above about -30%;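 further: stimulus is agonist 54-4 at its EC80 concentration; on the % scale 0 is the no-effect control and ±100 the full control effect; compound concentration not given in the record; the text of the record puts the active cut at -80%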
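Tet-induced TRPML1-DL cells loaded with Ca8 no-wash calcium dye were read kinetically on FDSS. Compound addition was followed by EC80 agonist 54-4 (4 uM final); inhibition was read over 110 s.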
* hit, by the source's call; ? = inconclusive; . = no result given; & = joins results of further samples; [ ] = another dose, or the depositor's remark.

| compound | PINK1 modulator | Six1-Eya2 inh | D2 agonist | TRPML1 ag | D2 PAM | TRPML1 inh |
| --- | --- | --- | --- | --- | --- | --- |
| COc1cccc(CCNC(=O)c2c(O)nc3ccccn3c2=O)c1 | 0.6% | . | . | -1.3 | . | -6 |
| CCOc1ccc(NC(=O)CN(C)C(=O)Cc2c(C)nc3ccccc3c2C)cc1OCC | 1.7% | -20 | -3.3 | -0.1 | -12 | 9 |
| COc1ccccc1N1CCN(C(=O)c2nc(SC)ncc2Cl)CC1 | 13% | . | . | -0.3 | . | -16 |
| COc1ccc(/C=N/n2c(SC)nnc(C(C)(C)C)c2=O)c(OC)c1 | 1.3% | 5 | -2.8 | 1.4 | -16 | 2 |
| CN(CC(=O)Nc1ccc(N2CCOCC2)cc1)C(=O)c1cn(-c2ccccc2)nc1-c1ccccc1 | 5.4% | 6 | -1.1 | -0.4 | -8 | 14 |
| Cc1ccc(NC(=O)C(=O)NCCN2CCN(S(=O)(=O)c3ccccc3)CC2)cc1C | -1.2% | 10 | -3.4 | 0.2 | 1 | 9 |
| Cc1nn(-c2ccccc2)c2c1C(=O)N(c1ccccc1)C(=O)C(C)(C)C2 | 1.7% | 0 | -3.2 | 0.6 | -46 | -10 |
| O=[N+]([O-])c1cccnc1-n1cnc2ccccc21 | 0.7% | 2 | ? | -0.6 | 1 | -3 |
| CCc1sc(C(=O)NCc2ccco2)cc1Br | 0.7% | -5 | -5.3 | 1.5 | -4 | -6 |
| CC(=O)Nc1ccc(-c2csc(NC(=O)C3CC(=O)N(c4ccc5c(c4)OCCO5)C3)n2)cc1 (stereo not given) | 0.7% | -13 | -1.5 | -0.5 | -10 | -2 |
| COc1ccc(CN(CCN2CCOCC2)C(=O)c2c(F)cccc2F)cc1OC | 8.4%[38.3 µM] | 5 | -0.5 | -0.2 | -8 | 3 |
| O=C(c1cccc(N2C(=O)C3CC=CCC3C2=O)c1)N1CCN(c2ccccc2)CC1 (stereo not given) | 0.7%[38.3 µM] | 2 | -1.7 | -0.6 | -7 | 3 |
| COC(=O)CCC(=O)N1CCCC(C(=O)c2ccc(Cl)cc2C)C1 (stereo not given) | 0.9% | -15 | -5.2 | -1.1 | -21 | 13 |
| Fc1ccc(CN2CCN3CCCC3C2C2CCCCC2)cc1F (stereo not given) | 10% | -12 | -3.2 | 0.3 | -14 | 5 |
| CN(C)C=Nc1ccc2nn(-c3ccccc3)nc2c1 | 1.9% | -11 | -0.9 | 0.0 | 3 | 17 |

Some of the entries above, reformatted:
Results follow in this order: PINK1 modulator | Six1-Eya2 inh | D2 agonist | TRPML1 ag | D2 PAM | TRPML1 inh
CN(CC(=O)Nc1ccc(N2CCOCC2)cc1)C(=O)c1cn(-c2ccccc2)nc1-c1ccccc1
 : 5.4% | 6 | -1.1 | -0.4 | -8 | 14
Cc1ccc(NC(=O)C(=O)NCCN2CCN(S(=O)(=O)c3ccccc3)CC2)cc1C
 : -1.2% | 10 | -3.4 | 0.2 | 1 | 9
Cc1nn(-c2ccccc2)c2c1C(=O)N(c1ccccc1)C(=O)C(C)(C)C2
 : 1.7% | 0 | -3.2 | 0.6 | -46 | -10
O=[N+]([O-])c1cccnc1-n1cnc2ccccc21
 : 0.7% | 2 | ? | -0.6 | 1 | -3

(further entries)
| compound | PINK1 modulator | Six1-Eya2 inh | D2 agonist | TRPML1 ag | D2 PAM | TRPML1 inh |
| --- | --- | --- | --- | --- | --- | --- |
| COc1ccccc1/C=C/C(=O)NCC(=O)n1nc(C)cc1C | 0.3% | 9 | -4.4 | 0.2 | -8 | 2 |
| COc1ccccc1NC(=S)N1CCC(NC(=O)c2ccco2)CC1 | -0.3% | 7 | -1.7 | 0.0 | -5 | 9 |
| COc1cc(OC)cc(C(=O)N[C@H](C(=O)OCC(=O)Nc2ccc(C(C)C)cc2)C(C)C)c1 | 0.8% | -1 | -0.8 | 1.5 | -8 | 0 |
| Cc1c(Cl)cccc1NC(=O)Nc1nnc(N(C)C2CCCCC2)s1 | -1.3% | . | . | 0.9 | . | 23 |
| COc1ccc(/C=C/c2onc(C)c2S(=O)(=O)N2CCC(C(=O)N3CCC(C)CC3)CC2)cc1 | 1.5%&-1.4% | 5 | 0.3 | 0.0&2.2 | -13 | 2&27 |
| COc1ccc(N2CCN(C(=O)C3CCCN(S(=O)(=O)c4ccc(F)cc4)C3)CC2)cc1 (stereo not given) | 0.4% | -10 | -1.1 | 0.4 | 6 | -6 |
| COC(=O)c1ccc(OC(=O)c2ccc(OC)c(OC)c2)c(OC)c1 | -2.1% | 1 | -1.4 | 2.3 | 2 | 5 |
| Cc1ccccc1CCN(C(=O)Cn1nnc2ccccc21)C(C(=O)NC(C)(C)C)c1ccsc1 (stereo not given) | 5.8%[38.3 µM] | -1 | -2.8 | -0.1 | -7 | -1 |
| COc1ccccc1CN1CCNC(=O)C1CC(=O)O (stereo not given) | -1.9% | -8 | 5.1 | 0.8 | 6 | -2 |
| Cc1ccc2c(c1)C1CN(C)CCC1N2Sc1ccccc1[N+](=O)[O-] (stereo not given) | -1.4% | ? | -8.2 | 3.7 | -19 | 70 |
| Cc1ccc(NC(=O)C(=O)NCCc2c[nH]c3ccccc23)c(C)c1 | 19% | -6 | -2.9 | 1.1 | -1 | -6 |
| CCN(CC)CCOC(c1ccccc1)c1ccc(C)cc1 (stereo not given) | -3.5% | 2 | -3.0 | -0.2 | -30 | 5 |
| CCOc1ccc(OCCNC2CCCC2)cc1 | -3.9% | -1 | -4.0 | -0.6 | -5 | -11 |
| CCOC(=O)CSc1nc2c(sc3ccccc32)c(=O)n1CCCN1CCOCC1 | 0.1% | -25 | -5.3 | -0.1 | -24 | 16 |
| CCN(CC)C(=O)Cn1cc(C(=O)C(=O)N2CCCc3ccccc32)c2ccccc21 | 1.7% | -7 | -5.6 | -0.3 | 3 | 21 |
| O=C1CC(c2nnc(Cc3ccc(F)cc3Cl)o2)CN1c1ccccc1 (stereo not given) | 0.8% | . | . | 0.8 | . | 11 |
| COc1ccc(-c2ccc(C#N)c(OC(=O)c3c(Cl)cccc3Cl)n2)cc1 | 0.2% | 19 | -5.4 | 0.1 | -3 | 7 |
| O=C(c1ccc(F)cc1)N1CCC(C(=O)N2CCN(c3ncccn3)CC2)CC1 | -1.8% | 8 | 2.2 | -0.2 | 2 | -4 |
| CN1CCCN(Cc2ccccc2C(F)(F)F)CC1 | -3.2% | -7 | -2.1 | 1.1 | 2 | 16 |
| O=C(NCc1ccccc1Cl)NCc1ccccc1Cl | -1.0% | 7 | -4.2 | -0.4 | -13 | -8 |
| CCOc1ccccc1C(=O)N1CCN(c2cccc(Cl)c2)CC1 | 6.3%[38.3 µM] | -2 | -1.5 | 1.7 | -16 | 7 |
| O=C(COc1ncnc2ccccc12)Nc1cccc([N+](=O)[O-])c1 | 0.8% | 1 | -3.3 | 0.3 | -7 | 11 |
| COc1ccc(OC)c(-c2cc(C(=O)Nc3cc(C)n(Cc4ccc(Cl)cc4)n3)no2)c1 | 3.6%[38.3 µM] | 8 | 1.0 | 0.1 | 6 | -10 |
| COc1ccc(N2CCN(C(=O)c3cn(CC(C)C)c(=O)c4c3c3ccccc3n4C)CC2)cc1 | 0.1% | . | . | 10 | . | 9 |
| CN(C)CCN(C)Cc1c2ccccc2c(CN(C)CCN(C)C)c2ccccc12 | 5.3% | -12 | -4.6 | 1.9 | -8 | -4 |
| O=C(COC(=O)c1cc(=O)[nH]c(=O)[nH]1)Nc1cccc(S(=O)(=O)N2CCOCC2)c1 | 0.1% | 4 | 5.0 | 1.1 | 13 | -11 |
| O=C(Nc1cccc2c1CCCC2)c1ccccc1Cl | 0.9% | 8 | 4.9 | 0.4 | -5 | -3 |
| c1ccc2c(SCc3cn4ccccc4n3)nncc2c1 | 0.0% | -3 | -2.7 | 0.2 | -16 | 4 |
| NC(N)=NS(=O)(=O)c1ccc(NC(=S)NC(=O)/C=C/c2ccc(F)cc2)cc1 | -1.0% | 11 | 1.3 | -0.5 | -11 | 6 |
| Cc1c(NC(=O)C(C)OC(=O)c2c3c(nc4ccccc24)CCC(C)C3)c(=O)n(-c2ccccc2)n1C (stereo not given) | 0.7% | 2 | -2.6 | 0.2 | -3 | -9 |
| O=S1(=O)c2c(F)cccc2OC(COc2ccccc2)CN1CCc1ccc(F)cc1 (stereo not given) | 0.1% | 4 | -0.6 | 2.7 | -6 | -6 |
| O=C(/C=C/c1ccccc1)NCCCNC(=O)/C=C/c1ccccc1 | 2.1% | 14 | -7.5 | -0.1 | -3 | -5 |
| Cc1ccccc1NC(=S)N(CCN(C)C)C(C)c1cccnc1 (stereo not given) | -1.4% | 0 | -2.5 | -0.3 | -6 | 4 |
| N#Cc1ccncc1S(=O)c1ccc(Cl)cc1 (stereo not given) | 0.7% | 13 | -1.2 | 0.1 | -8 | 8 |
| CN(CC(=O)Nc1ccc(F)cc1)C(=O)COC(=O)/C=C/c1ccc(OC(F)F)cc1 | 0.2% | 4 | 3.5 | 1.8 | 5 | -20 |
| CCOC(=O)c1ccccc1NC(=O)COC(=O)C(CCSC)NC(=O)COc1ccccc1 (stereo not given) | 1.2% | -17 | 7.7 | 3.3 | -3 | 16 |
| COc1ccc(CCNC(=O)COc2ncnc3cc([N+](=O)[O-])ccc23)cc1 | 0.5% | -4 | 2.5 | 0.1 | 1 | -4 |
| CCCCn1c(N)c(N(Cc2ccccc2OC)C(=O)c2ccc(N3CCCC3=O)cc2)c(=O)[nH]c1=O | 16% | 0 | -3.2 | -0.7 | 6 | 6 |
| CCC(C)[C@H](NC(=O)C1CCN(C(=O)[C@H](Cc2ccccc2)NS(=O)(=O)c2ccc(C)cc2)CC1)C(=O)O (stereo not given in full) | -2.0% | 7 | -4.0 | -1.3 | -5 | -7 |
| Cc1csc2nc(COC(=O)c3ccccc3NC(=O)c3cccc(Br)c3)cc(=O)n12 | 5.8% | . | . | 1.9 | . | 2 |
| O=C(NCc1cccs1)C1CCN(S(=O)(=O)c2cccc3cccnc23)CC1 | 0.8% | -3 | -4.4 | -0.5 | -1 | -16 |
| O=C(NCCCn1cccn1)c1cc(COc2ccc(F)cc2Cl)on1 | 0.2% | -3 | -2.8 | 0.9 | -9 | -4 |
| CC1=NN(Cc2ccccc2)C(=O)C1C(c1ccccc1)C(C#N)C#N (stereo not given) | 2.4% | -1 | -5.4 | 0.0 | -13 | -10 |
| O=C(O)c1cccc(S(=O)(=O)Nc2ccc(N3CCCCC3)cc2)c1 | -1.1% | 0 | -1.2 | 0.0 | -7 | 12 |
| CCOC(=O)N1CCN(C(=O)c2ccc(CNS(=O)(=O)c3ccc(C)cc3)cc2)CC1 | -1.6% | 2 | -0.3 | -0.5 | -9 | 5 |
| C[C@H](NC(=O)c1nc[nH]c1C(=O)N[C@@H](C)c1ccccc1)C(=O)OC(C)(C)C | 10% | -1 | -2.2 | 2.7 | 2 | -11 |
| C=C1C[C@H]2[C@@H]3CCc4cc(OC)ccc4[C@H]3CC[C@]12C | 14% | 3 | -2.9 | -0.7 | -6 | -7 |
| Cc1n[nH]c(C)c1N=Nc1ccc(Br)cc1 | -1.7% | -13 | -1.2 | -0.7 | -13 | 2 |
| CC(=O)Oc1cccc(C2=CC(=O)CC(C)(C)C2=O)c1 | 2.1% | 1 | -10 | -0.7 | 0 | -14 |
